Compound activity deposited in PubChem by National Center for Advancing Translational Sciences (NCATS).
AmpC inh no det – AmpC beta-lactamase inhibition, detergent-free assay | Potency, µM (highest dose often 28.7 µM), without a hit: at the highest dose activity change, negative = inhibition | 71,000 compounds, 1.8% hits | AID 585 | AmpC nitrocefin hydrolysis, absorbance 480 nm, no detergent; potencies from a single point are estimates; active = falling curve, for most hits resting on a single point; inconclusive = weak or doubtful change; inactive = flat or rising curve; further: % of control where 0% means no effect; about half of the hits show no inhibition at the top dose; a quarter of the inactives give rising signals
Target sequence (P00811 whole entry, looked up): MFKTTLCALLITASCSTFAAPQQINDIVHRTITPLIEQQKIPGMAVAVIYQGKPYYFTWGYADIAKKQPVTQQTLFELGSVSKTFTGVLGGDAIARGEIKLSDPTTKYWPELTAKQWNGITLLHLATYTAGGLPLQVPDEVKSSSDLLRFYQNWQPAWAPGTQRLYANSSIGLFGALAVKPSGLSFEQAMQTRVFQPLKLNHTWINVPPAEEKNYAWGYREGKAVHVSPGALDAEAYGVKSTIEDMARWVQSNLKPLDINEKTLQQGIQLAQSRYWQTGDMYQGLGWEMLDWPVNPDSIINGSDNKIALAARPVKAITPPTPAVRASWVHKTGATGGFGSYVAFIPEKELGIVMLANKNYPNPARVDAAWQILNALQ
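AmpC in 20 mM phosphate buffer pH 7.0 was preincubated 15 min at room temperature with compounds. Nitrocefin (800 uM stock) was then added and hydrolysis followed at 480 nm every 20 s for 4 min.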
Active calls of the source: *; u = inconclusive; [ ] = dose if it differs, or a comment. Potency means the concentration at half of the fitted maximal effect. This is a subset; the hit share may differ from the screen's.

SMILES | AmpC inh no det
CCCCNC(=O)C(c1ccc(-c2ccccc2)cc1)N(CCN1CCOCC1)C(=O)CCCCCN1C(=O)NC(c2ccc([N+](=O)[O-])cc2)C(C(=O)OCc2ccccc2)=C1C (centres undefined) | 46%
Nc1csnc1C(=O)O | -1%
C=CCn1c(SCc2c(C)noc2C)nc2sc3c(c2c1=O)CCCCC3 | 31%
CCOC(=O)c1oc2ccccc2c1CSc1nnnn1-c1ccccc1 | 15%
CCCCNc1nc(C)nc2c1nc(-c1ccccc1)n2CC(C)(C)CN(C)C | 104%
CCOC(=O)N1CCN(CC(O)c2ccc3c(c2)CCN3)CC1 (centres undefined) | 3%
Cc1nn(Cc2ccccc2Cl)c(C)c1C(=O)Nc1nnc(C2CC2)s1 | 83%
Cc1ccc(OCCCC(=O)Nc2ccc3c(c2)OCO3)cc1 | -4%
CC1Oc2ccccc2C=C1C1/C(=C(/O)c2ccccc2)C(=O)C(=O)N1CCCN(C)C (centres undefined) | 15%
O=C(C1CCN(S(=O)(=O)c2cccc3nsnc23)CC1)N1CC=C(c2ccccc2)CC1 | 31%
Cc1oc(C(=O)Nc2ccc(O)cc2)cc1COc1ccccc1 | -19%
CCOc1cccc(NC(=O)C2CCCN(S(=O)(=O)c3ccc(OC)cc3)C2)c1 (centres undefined) | 0%
O=C(Nc1cccnc1)Nc1ccc2c(c1)OCO2 | -9%
Nc1nonc1-c1nc2ccccc2n1CCC(=O)O | -8%
C#CCN1C(=O)C2(C(C#N)=C(N)OC(C)=C2C(=O)OCc2ccccc2)c2ccccc21 (centres undefined) | 28%
CCC(=O)N1c2ccc(S(=O)(=O)CCC(=O)N3CCn4c3nc3ccccc34)cc2CC1C (centres undefined) | 95%
O=C(O)[C@H]1CCCC[C@@H]1c1c2ccc(=O)c(O)c-2oc2c(O)c(O)ccc12 | u
O=C(Cc1n[nH]c(=O)c2ccccc12)NCc1ccccn1 | 1%
O=C1c2cccnc2C(=O)N1Cc1cccs1 | 19%
c1ccc(-c2c3ccccc3nc3[nH]c4ccccc4c23)cc1 | 31%
CN(C)c1ncc2nc(-c3ccc(F)cc3)c(=O)n(C[C@H]3CCCO3)c2n1 | 3%
O=c1nc(N(c2ccccc2)c2ccccc2)[nH]c(=O)[nH]1 | -15%
CCOC(=O)C1=C(N)Oc2c(oc(CO)cc2=O)C1c1c(F)cccc1Cl (centres undefined) | 21%
CC(Oc1ccc(Cl)cc1)C(=O)Nc1nccs1 (centres undefined) | -6%
NCCCCNS(=O)(=O)c1ccc2c(Cl)cccc2c1 | 27%
CCCCNC(=O)Nc1ccnn1C1CCCCC1 | 3%
CCCN(CCC(=O)Nc1cc(OC)cc(OC)c1)CC1CC1 | 9%
Cc1ccnc(Sc2nc3c(c(=O)[nH]c(=O)n3C)n2CCCc2ccccc2)n1 | 66%
O=C(Cn1c(=O)sc2ccccc21)Nc1ccccc1C(=O)O | -11%
COC(=O)COC(=O)c1ccc(-n2nnnc2SC)cc1 | -1%
CCN(CC)CCNC(=O)NC1CCCCC1 | -7%
CCn1c(SCC(=O)NCC(=O)Nc2ccc(F)cc2)nnc1-c1cccs1 | 21%
CCC(=O)N1CCc2cc(Br)cc(S(=O)(=O)N3CCN(c4ccccn4)CC3)c21 | 16%
CCS(=O)(=O)NCc1cn2c(C)csc2n1 | 4%
COc1ccc(OC)c(NC2c3ncccc3C(=O)N2Cc2ccco2)c1 (centres undefined) | 17%
Cc1cc(C)cc(N(CC(=O)N2CCN(c3ccccc3)CC2)S(=O)(=O)c2c(C)noc2C)c1 | 108%
COc1cccc(C(=O)NC2CCSC2=O)c1 (centres undefined) | -15%
CN(C(=O)c1ccccn1)c1nnc(-c2cnccn2)s1 | 5%
CC12COC3(C(=O)Nc4ccc(Cl)cn4)CC1CCC32C (centres undefined) | 5%
CCOC(=O)CBr | -3%
O=C(CCn1c(=O)c2sccc2n(CC(=O)NCc2ccco2)c1=O)NCc1ccccc1 | 7%
CCOC(=O)c1[nH]c(Cc2[nH]c(C(=O)OCC)c(C)c2CCC(=O)OC)c(CCC(=O)OC)c1C | 64%
CSc1nc(-c2ccco2)nn1S(C)(=O)=O | -9%
CCOC(=O)N1CCC(n2c(SCC(=O)NCCC3=CCCCC3)nc3ccccc3c2=O)CC1 | 136%
O=C(Nc1ccc2nc(-c3cccnc3)[nH]c2c1)c1ccco1 | -7%
N#CC(CC(=O)O)=C(c1ccccc1)c1ccccc1 | -3%[5.75 µM]
CN1CCN(c2ncnc3ccc(-c4ccccc4Cl)cc23)CC1 | 135%
CS(=O)(=O)N(CC(=O)N1CCCC1)c1cccc(Cl)c1Cl | 27%
CCCCNC(=O)CCSc1nc2nc(C)cc(C)n2n1 | 8%
COc1ccc(N2C(=O)C3CCCN3C2c2ccccc2)cc1 (centres undefined) | 13%
Cc1c(NC(=O)c2cccc(F)c2)c(=O)n(-c2ccccc2)n1C | 61%
COCCn1cc(C(=O)N2CCC3(CC2)OCCO3)c2c3ccccc3n(C)c2c1=O | 68%
Cc1cc(C(=O)Nc2ccccn2)cs1 | -3%
O=C(COc1ncnc2ccccc12)N1CCN(S(=O)(=O)c2ccccc2)CC1 | 24%
CN(C)CCC=C1c2ccccc2C=Cc2ccccc21 | 14%[5.75 µM]
COc1ccc(OC)c(NC(=O)C2CCN(c3nc(C)cc(C)n3)CC2)c1 | 40%
CSc1ccc(-c2c(C#N)c(N)nc3c2CCCC3)cc1 | 17%
CC1=C(C(N)=O)C(c2ccccc2)n2nc(-c3cccs3)nc2N1 (centres undefined) | 4%
O=C(O)CCC(=O)NCc1ccc2[nH]c3c(c2c1)CCCC3 | 17%
O=C1c2ccccc2C(=O)N1Cc1ccco1 | 8%

Remaining list, next part:
SMILES | AmpC inh no det
CCOC(=O)c1ccc(N2C(=O)C(C)=C(C)C2=O)cc1 | 18%
CC(C)N(Cc1ccccc1)C(=O)c1cnc2n(c1=O)CCS2 | 3%
CCC1(CC)NC(=O)N(CC(=O)OCn2nnc3ccccc3c2=O)C1=O | 17%
FC(F)(F)c1cccc(Nc2ncnc3ccccc23)c1 | -18%
COc1cccc(Cn2c(=O)c(-c3cccc(C#N)c3)nc3cnc(Nc4ccccc4)nc32)c1 | 0%
CCCCCC(=O)N1CCN(c2ccc(C(C)=O)cc2F)CC1 | 58%
CCOc1ccc2nc(NC(=O)CSc3nc4ccccc4c(=O)n3Cc3ccco3)sc2c1 | 1%
COCCn1c(=O)c(-c2ccc(Cl)cc2)nc2cncnc21 | 40%
CC(C)(C)NC(=O)c1ccc2nccnc2c1 | 8%
CC[C@H]1CN2CC[C@@H]1C[C@@H]2[C@H](O)c1ccnc2ccccc12 | 1%
CC(C)(C)c1ccc(OCc2nc(-c3ccccn3)no2)c(Br)c1 | 73%
CCCn1c(C)nc2c(c1=O)c1nc3ccccc3nc1n2CCC1=CCCCC1 | 96%
CC(C)(C)c1ccc(O)c(CN(Cc2c(O)ccc3ccccc23)C2CCCCC2)c1 | 7%[5.75 µM]
COC(=O)C1(S(=O)(=O)c2cccc3nsnc23)CC1 | 1%
O=C1Nc2ccc(Br)cc2C1(O)Cc1ccncc1 (centres undefined) | -6%
Cc1cc(C(=O)Nc2sc3c(c2C#N)CCC3)no1 | 2%
Cc1coc2cc3oc(=O)c4c(c3cc12)CCCC4 | 3%
CC(C)CNC(=O)CN(C1CCCCC1)S(=O)(=O)c1ccccc1 | 44%
COc1ccc(CCC2(C)NC(=O)NC2=O)cc1 (centres undefined) | -4%
O=c1oc2c3c4c(cc2s1)CCCN4CCC3 | -2%
Cn1c(=O)[nH]c(=O)c2c1nc(CN1CCN(c3cccc(Cl)c3)CC1)n2CCc1ccccc1 | 91%
O=C(CCCn1c(=O)c2ccccc2n(Cc2ccccc2)c1=O)NCc1ccco1 | 45%
COc1ccc(Br)cc1CNc1ccc(O)cc1 | -6%
CCOC(=O)N1CCN(C(=O)Cn2ccc3ccccc3c2=O)CC1 | -22%
CSc1cccc(NC(=O)C2CCN(S(=O)(=O)c3ccc(F)cc3)CC2)c1 | -18%
CC(C)(C)Nc1nc(Oc2ccc(=O)n(-c3ccccc3)n2)nc(N2CCOCC2)n1 | 103%
O=C(Nc1ccccc1)N1CC2(CCN(C(=O)c3ccco3)CC2)C1 | -14%
O=C(NCC1CCCO1)C1CCN(S(=O)(=O)c2cccc3cccnc23)CC1 (centres undefined) | 1%
O=C(O)c1n[nH]c2ccccc12 | -6%
COC(=O)c1ccc2c(=O)n(CCCN3CCOCC3)c(=S)[nH]c2c1 | -5%
O=C(c1ccccc1)[C@H]1[C@H](c2ccccc2[N+](=O)[O-])N1C1CCCCC1 (some centres undefined) | -10%[5.75 µM]
COc1cccc(C2C=C(c3ccc(Br)s3)Nc3ncnn32)c1OC (centres undefined) | 46%
O=C1CC(N2CCC(c3nc4ccccc4s3)CC2)C(=O)N1 (centres undefined) | 15%
CCCn1nnc(NC(=O)c2cccc(OCC)c2)n1 | -6%
CCOC(=O)Cc1c(C)nc2cc(-c3ccc(C)cc3)[nH]n2c1=O | -4%
CC(=O)NCCNc1ccnc(-c2ccccc2C(F)(F)F)n1 | 14%
CN1CCc2cc(NC(=O)Nc3cccnc3)ccc21 | -8%
C=CCn1c(SCC(=O)Nc2ccc3c(c2)OCO3)nnc1-c1ccccc1 | -9%
CCOP(=S)(OCC)SCCSCC | -6%
Clc1ccccc1CSc1nnc(-c2ccccn2)n1Cc1ccco1 | 93%
CCN(CC)C(=O)COC(=O)c1ccc(O)cc1 | -3%
CCCc1cc(N2CCCC2)n2nc(C)c(-c3ccccc3)c2n1 | 4%
N#Cc1nc(-c2ccco2)oc1NCCCn1ccnc1 | -8%
Cc1cc(C)c(NC(=O)C[C@H](CC(=O)O)c2cccc3ccccc23)c(C(=O)N2CCC3(CCCC3)CC2)c1 | 74%
CN(Cc1ccco1)c1cc(-c2ccccc2C(F)(F)F)ncn1 | 45%
NC(=O)C1CCN(Cc2nc(-c3ccccc3)no2)CC1 | 6%
ClCCl | -7%
CCC1(COC(NC(=O)c2cccnc2)(C(F)(F)F)C(F)(F)F)COC1 | 36%
O=C(CCCc1ccccn1)c1ccccc1 | 3%[5.75 µM]
Cc1c(C(=O)NCc2ccc3c(c2)OCO3)oc2ccc(S(=O)(=O)N3CCCCCC3)cc12 | -15%
CC1(C)CC(NS(=O)(=O)c2ccc(S(=O)(=O)N3CCOCC3)cc2)CCO1 (centres undefined) | -2%
CN1CCN(S(=O)(=O)c2ccc(NC(=O)c3ccc(Br)o3)cc2)CC1 | -2%
COC(=O)c1ccc(Oc2nc(NC(C)C)nc(N(C)C)n2)cc1 | 13%
COc1ccc(C(=O)N(CCN2CCOCC2)CC(=O)NC2CCCC2)cc1OC | 9%
O=C(O)c1ccc(C(=O)O)c2c(C(=O)O)ccc(C(=O)O)c12 | 6%[5.75 µM]
O=C(C1CCCN(S(=O)(=O)c2cccc3cccnc23)C1)N1CCN(c2ccccc2F)CC1 (centres undefined) | 20%
O=C(NCc1ccc2c(c1)OCO2)Oc1ccccc1 | 4µM*[single pt active]
Cc1cccc(NC(=O)CC2NC3CCCCC3NC2=O)c1 (centres undefined) | 10%
Cc1cc(C)c(S(=O)(=O)NCCC2CCCN2C)c(C)c1 (centres undefined) | 0%
COc1cccc2c1C(=O)c1c(O)c3c(c(O)c1C2=O)C[C@@](O)(C(=O)CO)C[C@H]3O[C@H]1C[C@@H](N)[C@H](O)[C@@H](C)O1.[W] | 11%[5.75 µM]

The last 2 compounds of the part above are carried over, then new ones follow.
SMILES | AmpC inh no det
Cc1cc(C)c(S(=O)(=O)NCCC2CCCN2C)c(C)c1 (centres undefined) | 0%
COc1cccc2c1C(=O)c1c(O)c3c(c(O)c1C2=O)C[C@@](O)(C(=O)CO)C[C@H]3O[C@H]1C[C@@H](N)[C@H](O)[C@@H](C)O1.[W] | 11%[5.75 µM]
COc1cc(OC)cc(-c2cc3nc4c(c(N5CCN(c6ncccn6)CC5)n3n2)CCCC4)c1 | 53%
O=C(Cn1cc2c(n1)CCCC2)Nc1ccccc1Br | 4µM*[single pt active]
CCOCCCNC(=O)Cc1c(C(=O)O)[nH]c2ccc(Cl)cc12 | 3%
COc1ccccc1NC(=O)CSc1nc(O)cc(=O)n1C | -7%
CC12CCC(C(N)=O)(c3nc4ccccc4nc31)C2(C)C (centres undefined) | 9%

Exported in CSV form: part of the list above.
SMILES,AmpC inh no det
NC(=O)C1CCN(Cc2nc(-c3ccccc3)no2)CC1,6%
ClCCl,-7%
CCC1(COC(NC(=O)c2cccnc2)(C(F)(F)F)C(F)(F)F)COC1,36%
O=C(CCCc1ccccn1)c1ccccc1,3%[5.75 µM]
Cc1c(C(=O)NCc2ccc3c(c2)OCO3)oc2ccc(S(=O)(=O)N3CCCCCC3)cc12,-15%
CC1(C)CC(NS(=O)(=O)c2ccc(S(=O)(=O)N3CCOCC3)cc2)CCO1 (centres undefined),-2%
CN1CCN(S(=O)(=O)c2ccc(NC(=O)c3ccc(Br)o3)cc2)CC1,-2%
COC(=O)c1ccc(Oc2nc(NC(C)C)nc(N(C)C)n2)cc1,13%
COc1ccc(C(=O)N(CCN2CCOCC2)CC(=O)NC2CCCC2)cc1OC,9%
O=C(O)c1ccc(C(=O)O)c2c(C(=O)O)ccc(C(=O)O)c12,6%[5.75 µM]
O=C(C1CCCN(S(=O)(=O)c2cccc3cccnc23)C1)N1CCN(c2ccccc2F)CC1 (centres undefined),20%
O=C(NCc1ccc2c(c1)OCO2)Oc1ccccc1,4µM*[single pt active]
Cc1cccc(NC(=O)CC2NC3CCCCC3NC2=O)c1 (centres undefined),10%
Cc1cc(C)c(S(=O)(=O)NCCC2CCCN2C)c(C)c1 (centres undefined),0%
COc1cccc2c1C(=O)c1c(O)c3c(c(O)c1C2=O)C[C@@](O)(C(=O)CO)C[C@H]3O[C@H]1C[C@@H](N)[C@H](O)[C@@H](C)O1.[W],11%[5.75 µM]
COc1cc(OC)cc(-c2cc3nc4c(c(N5CCN(c6ncccn6)CC5)n3n2)CCCC4)c1,53%
O=C(Cn1cc2c(n1)CCCC2)Nc1ccccc1Br,4µM*[single pt active]
